Arbovirus inh = arbovirus infection inhibition. arbovirus infection cell-based antiviral screen. inhibition, % at 10 µM. hit rate 0.37% among 200,000. AID 1251;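 active = inhibition from about 30%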;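 also: bluetongue infection of BSR cells; cell survival read as ATP light after 72 h; 0% = infected wells without compound and 100% = uninfected wells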
Mtb bLac sens = beta-lactam sensitization of Mtb H37Rv; M. tuberculosis H37Rv growth with meropenem, percent inhibition; hits of this screen are not shown here; inhibition, % at 25 µM; hit rate 0.27% among 330,000; AID 434955;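 active = about 74% or more and at least 40 points above the plate without the antibiotic, then above 30% in a dose series; inconclusive = first-round hits that could not be retested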;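 also: growth measured after seven days incubation then overnight dye step; 0% = bacteria only wells and 100% = bacteria with antibiotic; twin plates without the antibiotic show which effects depend on it; some results filed as inactive read as strong as hits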
YopH PTP inh = YopH (Yersinia) phosphatase inhibition; fluorescence Ex485/Em525; inhibition, %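 (about 10 µM by stock and volumes)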; hit rate 0.16% among 140,000; AID 898;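 active = inhibition of 50% or more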;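 also: controls were vehicle for no effect and minimum signal wells for full effect; inactives centre near -20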
RecA intein inh = Mtb RecA intein splicing inhibition; cell-free RecA intein splicing, fluorescence; inhibition, %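 (about 9 µM by stock and volumes)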; hit rate 0.75% among 290,000; AID 2221; in the data active = inhibition above about 30%; inconclusive = no clear call, values can overlap the other calls;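 also: 0% = vehicle wells and 100% = reference inhibitor control wells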
Target sequence (P9WHJ3 whole entry, looked up): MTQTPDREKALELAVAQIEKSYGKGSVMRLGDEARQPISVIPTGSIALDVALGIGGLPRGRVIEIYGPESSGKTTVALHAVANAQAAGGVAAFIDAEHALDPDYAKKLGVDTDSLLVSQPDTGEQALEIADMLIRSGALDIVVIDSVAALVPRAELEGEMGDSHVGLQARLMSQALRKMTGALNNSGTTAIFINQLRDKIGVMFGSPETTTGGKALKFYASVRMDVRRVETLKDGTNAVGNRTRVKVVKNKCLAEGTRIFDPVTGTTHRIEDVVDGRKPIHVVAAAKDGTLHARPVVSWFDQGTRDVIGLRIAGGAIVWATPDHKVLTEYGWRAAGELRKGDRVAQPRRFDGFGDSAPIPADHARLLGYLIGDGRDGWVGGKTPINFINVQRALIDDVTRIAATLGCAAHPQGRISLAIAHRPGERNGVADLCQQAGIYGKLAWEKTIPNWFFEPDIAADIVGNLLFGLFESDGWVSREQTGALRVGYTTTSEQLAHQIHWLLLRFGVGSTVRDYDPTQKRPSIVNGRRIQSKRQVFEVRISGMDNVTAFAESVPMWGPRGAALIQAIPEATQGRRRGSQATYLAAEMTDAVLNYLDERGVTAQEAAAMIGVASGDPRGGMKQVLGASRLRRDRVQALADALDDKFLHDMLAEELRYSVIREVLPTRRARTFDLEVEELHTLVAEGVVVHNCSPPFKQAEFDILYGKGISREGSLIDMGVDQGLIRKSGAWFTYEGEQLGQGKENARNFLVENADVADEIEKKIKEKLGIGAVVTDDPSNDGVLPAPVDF
Mtb H37Rv = M. tuberculosis H37Rv growth inhibitors, H37Rv strain (AID 1626). M. tuberculosis H37Rv growth inhibition; higher % means a stronger effect. inhibition, % at 10 µM; hits with a dose series show IC50 in µM. hit rate 0.95% among 220,000;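 active = confirmed in a dose series; inconclusive = inhibition above 80% but not taken into the dose series; inactive = below 80% or under 30% at every dose of the series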;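 also: bacteria incubated seven days before Alamar blue readout; 0% = bacteria only wells and 100% = bacteria with antibiotic wells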
Arbovirus inh repeat = also measured in Arbovirus inh; calls as there; inhibition, %; measured here: 10K subset replicate screen; many hits read low in the repeat;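 first of two repeat runs on a subset; 0% = infected and 100% = uninfected wells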
The depositor's hits bear a star; ? = inconclusive; · = no result given.

SMILES	Arbovirus inh	Mtb bLac sens	YopH PTP inh	RecA intein inh	Mtb H37Rv	others
COc1ccc(-c2cc(C(=O)NCCc3ccc(S(N)(=O)=O)cc3)c3ccccc3n2)cc1	7	6	·	-0.7	0%
Cc1cccc(NC(=S)NC(C)C(c2cccs2)N2CCN(C)CC2)c1C (configuration not stated)	·	-11	·	2.1	2%
CCNc1nc(NCC)nc(OCCOC(C)=O)n1	-4	-12	-30	-1.5	-1%
CC(C)(C)Cc1nnc(NC(=O)c2cc(-c3ccccc3)nc3ccccc23)s1	-15	75	-59	4.2	·
Cc1cc2ncc(-c3ccc(Cl)cc3)c(N)n2n1	-5	1	-25	-1.9	7%	Arbovirus inh repeat=-13
CCC(C(=O)OCC(=O)Nc1ccc2[nH]c(=O)[nH]c2c1)c1ccccc1 (configuration not stated)	·	1	·	-4.0	·
O=C(Cc1cccs1)N1CCC(c2nc3c(nnn3Cc3ccc(F)cc3)c(=O)[nH]2)CC1	0	0	-51	-5.2	-1%
O=C1CCNc2c(Cl)cc(Cl)cc21	·	-8	·	-28	-2%
CCOC(=O)c1c(C)[nH]c(C)c1S(=O)(=O)N(C)CC(=O)Nc1ccccc1	·	-3	·	1.2	·
CCS(=O)(=O)Nc1cccc(C2=NN(S(=O)(=O)c3ccccc3)C(c3cccs3)C2)c1 (configuration not stated)	-3	0	-43	3.4	5%
CC(C)(C)c1cc(C(=O)NNc2cc(C(F)(F)F)ccc2Cl)n(Cc2ccccc2)n1	·	85	·	2.1	79%
Cc1csc(=Nc2c(C)n(C)n(-c3ccccc3)c2=O)n1-c1ccccc1	4	-1	·	1.4	-2%
Cc1cc(Cl)c2oc(C(=O)N(C)CCCN3CCOCC3)c(C)c2c1	·	6	·	4.6	·
Cc1ccn2c(CNCCCn3cccn3)c(C(=O)N3CCCCCC3)nc2c1	6	0	·	-2.8	-4%
C/C(=N/NC(=O)CNC(=O)c1ccc2c(c1)OCO2)c1ccc2c(c1)CCCC2	-25	9	·	-1.4	-6%
CCOC(=O)c1cnc(-c2cccc(OC)c2)[nH]c1=O	12	-2	-52	0.0	5%
C=CCNC(=S)NNC(=O)c1ccc2c(c1)OCO2	1	4	-19	-3.2	-11%
O=C(O)CCCCCCCCc1cn(CCc2c[nH]c3ccccc23)nn1	·	85	·	-0.9	·
CCOC(=O)CCn1nc(-c2ccccc2)cc1N	-3	-1	-36	3.1	0%
Cc1ccc(N(C)C(=O)C2CCCN2S(=O)(=O)c2cccc3nsnc23)cc1 (configuration not stated)	·	-18	·	-0.6	3%
CCCCCCn1c(C(C)O)nc2ccccc21 (configuration not stated)	8	-2	-21	4.4	-6%
COc1ccc(C(=O)Nc2ccc3nc(C)sc3c2)cc1OC	8	6	·	·	-5%
CC1Sc2ccc(S(=O)(=O)NCCc3ccc(Cl)cc3)cc2NC1=O (configuration not stated)	·	-3	·	-2.2	·
O=C(Nc1cccn(Cc2c(F)cccc2Cl)c1=O)NC1CCCCC1	-17	3	·	-2.8	1%
CCCC(=O)c1cc(F)c(N2CCN(CCC#N)CC2)cc1C	-7	-8	-30	-2.7	-2%	Arbovirus inh repeat=-6
CCOc1ccccc1NC(=S)N(CCCN1CCOCC1)Cc1cn(C)c2ccccc12	-2	-3	-27	0.3	3%
Clc1ccc(/C=N\Nc2ccccc2)cc1	·	75	·	2.3	?
CCCCNC(=O)c1cn(CC)c2cc(N3CCN(C(=O)c4ccco4)CC3)c(F)cc2c1=O	·	86	·	-0.3	·
Cc1ccc(S(=O)(=O)/N=C(/Nc2ccc(F)cc2F)c2ccc(F)cc2)cc1	·	4	·	-4.0	·
O=C(Nc1ccccc1)c1ccc(NCCN2C(=O)CCC2=O)c([N+](=O)[O-])c1	-4	3	·	3.7	-6%
O=C(CN1CCc2ccccc21)Nc1ccc2c(c1)OCO2	-2	-6	-33	·	·
O=S(=O)(NCCNS(=O)(=O)c1cccs1)c1cccs1	10	-1	-20	-0.5	·
CC1CN(c2nnc(-c3ccccc3)c3ccccc23)CC(C)O1 (configuration not stated)	7	-7	·	1.0	6%
CCc1ccc(NC(=O)N2CCC(c3ccccc3)C2)cc1 (configuration not stated)	-5	-8	·	-1.9	-3%
CN(C(=O)c1ccccc1[N+](=O)[O-])c1ccccc1C(=O)NCc1ccccc1	·	2	·	18	·
CC1(c2ccc(Cl)c(Cl)c2)NC(=S)N2C1NC(=S)N2c1ccccc1 (configuration not stated)	-13	92	-24	7.3	·
CN1C(=O)[C@H]2[C@@H](C3CC3)N3C(=O)CN(Cc4ccccn4)C(=O)[C@@]3(Cc3ccccc3)[C@H]2C1=O	·	-11	·	0.1	·
CSCCC(NC(=O)c1ccc(Cl)cc1)C(=O)OCC(=O)Nc1ccc(C#N)cc1 (configuration not stated)	-4	-4	-26	-2.9	-10%
COc1ccc(CNC(=O)CCC(=O)N2CC(C)Oc3ccccc32)cc1 (configuration not stated)	·	-3	·	0.2	·
CCC1CCCCN1CCCNC(=O)c1ccc2c(c1)NC(=O)CN2C (configuration not stated)	·	-6	·	-3.8	·
CC[C@H](CO)NCCN[C@H](CC)CO	2	100	-27	-0.8	0.78µM*
CCOc1ccccc1Oc1c(C)oc2cc(OC(=O)N3CCOCC3)ccc2c1=O	-1	5	-7	-2.3	2%	Arbovirus inh repeat=1
COC(=O)C1=C[C@@H](C(=O)OC)[C@@H]2C3=C(C(=O)[C@]2(CC(C)C)NC(=O)c2ccccc2)[C@H](C)n2c(=O)n(-c4ccccc4)c(=O)n2[C@@H]3C1	·	-10	·	-4.2	-9%
C=CCNC(=O)N1CCC(c2nc3ccccc3s2)CC1	·	-4	·	-0.3	·
Cc1cc(C)c(S(=O)(=O)NCCc2cc3ccc(C)c(C)c3[nH]c2=O)c(C)c1	·	0	·	1.9	·
COc1ccc(-n2nnnc2SCC(=O)Nc2nnc(C)s2)cc1OC	5	1	-19	-0.4	0%
O=C(c1ccc(N2CCC3(CC2)OCCO3)c([N+](=O)[O-])c1)N1CCOCC1	8	-1	·	-0.3	0%
O=C(COc1ccccc1)Nc1nonc1NC(=O)COc1ccccc1	5	6	-6	0.6	7%

Next part, starting with the last 2 of the part before.
SMILES	Arbovirus inh	Mtb bLac sens	YopH PTP inh	RecA intein inh	Mtb H37Rv	others
O=C(c1ccc(N2CCC3(CC2)OCCO3)c([N+](=O)[O-])c1)N1CCOCC1	8	-1	·	-0.3	0%
O=C(COc1ccccc1)Nc1nonc1NC(=O)COc1ccccc1	5	6	-6	0.6	7%
Cc1cn2c(nc1=O)OC1CC2OC1CO (configuration not stated)	·	-9	·	0.6	-9%
CC1(C)CC(=O)c2cnc(N3CCc4ccccc4C3)nc2C1	-1	4	-48	0.6	-15%
O=C(Nc1ccc(Br)cc1Br)C1CC(=O)N(Cc2ccccc2)C1 (configuration not stated)	·	5	·	-0.4	·
CCC(C)N(C(=O)Cn1nc(C)c([N+](=O)[O-])c1C)C1CCS(=O)(=O)C1 (configuration not stated)	·	6	·	2.2	·
Oc1ccc2ccccc2c1C=NCc1cn2ccsc2n1	9	-10	-1	0.4	5%
CC1CCC(NC(=O)CN(C)S(=O)(=O)c2cccc3cccnc23)CC1 (configuration not stated)	·	-1	·	0.8	-4%
OC(COCc1ccccc1)CN1CCCC1 (configuration not stated)	0	-8	-51	-0.7	-7%
Cc1ccc(NC2CCCN(C(=O)c3ccnc(Cl)c3)C2)cc1C (configuration not stated)	·	-4	·	-7.9	·
COC(=O)[C@@H](NC(=O)NCc1ccccc1F)C(C)C	4	0	-17	0.2	-10%
CN(CC(=O)Nc1ccc(Cl)cc1)C(=O)CCc1nc2sc3c(c2c(=O)[nH]1)CCCC3	·	2	·	-2.9	·
CC(=O)Nc1ccc(S(=O)(=O)Nc2cccc(NC(=O)C(C)(C)C)c2)cc1	12	-3	-25	-3.8	-4%
CCC(=O)NC(c1ccc(OC)c(OC)c1)c1cc(Cl)c2cccnc2c1O (configuration not stated)	-32	·	·	-2.0	6%
CCC(C)c1ccc(OCc2ccc(C(=O)OC)o2)cc1 (configuration not stated)	·	-4	·	8.8	-20%
Cc1ccc(C(=O)NC(C)c2ccc(-n3ccnc3)cc2)o1 (configuration not stated)	·	-5	·	-0.3	·
CCOC(=O)C1CCN(C2CCN(C(=O)c3oc4c(F)cccc4c3C)CC2)CC1	·	7	·	0.7	·
COc1cc(N)n(S(=O)(=O)c2ccc(C)cc2)n1	3	-5	·	-0.4	-8%
CCCC(=O)N(CCN1CCOCC1)c1nc2c(OC)ccc(C)c2s1	·	?	·	3.2	·
O=C(O)COc1ccc(NC(=O)c2ccc(NC(=O)c3ccco3)cc2)cc1	2	-6	·	0.0	3%
COc1ccc(N2C(=NC(=O)C3CCCCC3)SC3CS(=O)(=O)CC32)c(OC)c1 (configuration not stated)	·	-2	·	-0.1	·
CCOC(=O)Nc1cccc(NC(=O)c2cc(OC)cc(OC)c2)c1	-5	4	-16	3.6	-4%
Cc1ccccc1NC(=O)c1sc(NC(=O)C2CC2)nc1C	·	-1	·	0.7	·
COc1ccc(N2CCN(S(=O)(=O)CCNC(=O)C3CCCCC3)CC2)cc1	·	-2	·	-2.5	·
CS(=O)(=O)c1ccc(NC(=O)CCN2C(=O)C3CC=CCC3C2=O)cc1 (configuration not stated)	·	4	·	-3.2	·
COc1ccc(F)cc1S(=O)(=O)Nc1ccc(C)cc1	4	-4	14	-0.6	6%
Oc1cccnc1CCc1ccccc1	1	-6	·	-3.7	-11%
COc1ccc(NC(=O)COC(C)=O)cc1OC	2	-8	·	1.8	0%
Cc1cc(NC(=O)c2ccc(C#N)cc2)n(-c2ccccn2)n1	-11	-3	·	·	2%
COc1ccc(CNS(=O)(=O)c2ccc3c(c2)CCN3C(=O)C2CC2)cc1	-1	3	-2	1.4	-1%
COc1ccccc1-c1nnc(NC(=O)c2ccc(S(=O)(=O)N(C)C)cc2)o1	-13	45	-3	2.3	?
CCOC(=O)c1nc(NCc2ccccc2)sc1C	·	8	·	3.0	·
COCCNc1nc(SC)nc2sc3c(c12)CCN(C)C3	·	3	·	-1.4	·
COc1cccc(-c2nc3n(n2)C(c2cccs2)C(C(=O)Nc2cccnc2)=C(C)N3)c1 (configuration not stated)	0	7	-38	1.4	-5%	Arbovirus inh repeat=-1
O=C1[C@H]2[C@@H](c3ccc(Cl)cc3)N3C(=O)N(c4cccc(Br)c4)C(=O)[C@@]3(Cc3ccc(Cl)cc3)[C@H]2C(=O)N1C1CCCCC1	·	-3	·	1.4	·
O=C(O)c1ccccc1SCC(=O)N1CCc2ccccc21	7	-10	·	-3.0	-4%
Cc1ccc(C)c(NS(=O)(=O)c2cc(C(=O)N3CCCC3)ccc2Cl)c1	12	4	·	-6.6	-5%
CCN(CC)CCNC(=O)c1ccc(NC(=O)c2ccc(F)cc2F)cc1	-4	0	·	-0.1	-4%
CCOC(=O)N1CCN(C(=O)CN2C(=O)CC(C)(C)S(=O)(=O)c3ccccc32)CC1	6	8	-12	-4.5	2%
COc1ccc2occ(C(=O)c3ccccc3)c2c1	-5	0	·	1.5	6%
O=C(NCc1ccccc1)C1CCCN(c2cnccn2)C1 (configuration not stated)	·	1	·	1.2	·
O=C(c1ccccc1Sc1ccc([N+](=O)[O-])cc1Cl)N1CCOCC1	6	-5	·	-1.1	4%
Cc1cc2ncn(C(=O)c3c(-c4ccccc4)noc3C)c2cc1C	7	18	-39	17	0%

Grouped by structure, those above containing fluorine (ten)
SMILES	Arbovirus inh	Mtb bLac sens	YopH PTP inh	RecA intein inh	Mtb H37Rv	others
O=C(Cc1cccs1)N1CCC(c2nc3c(nnn3Cc3ccc(F)cc3)c(=O)[nH]2)CC1	0	0	-51	-5.2	-1%
CC(C)(C)c1cc(C(=O)NNc2cc(C(F)(F)F)ccc2Cl)n(Cc2ccccc2)n1	·	85	·	2.1	79%
O=C(Nc1cccn(Cc2c(F)cccc2Cl)c1=O)NC1CCCCC1	-17	3	·	-2.8	1%
CCCC(=O)c1cc(F)c(N2CCN(CCC#N)CC2)cc1C	-7	-8	-30	-2.7	-2%	Arbovirus inh repeat=-6
CCCCNC(=O)c1cn(CC)c2cc(N3CCN(C(=O)c4ccco4)CC3)c(F)cc2c1=O	·	86	·	-0.3	·
Cc1ccc(S(=O)(=O)/N=C(/Nc2ccc(F)cc2F)c2ccc(F)cc2)cc1	·	4	·	-4.0	·
COC(=O)[C@@H](NC(=O)NCc1ccccc1F)C(C)C	4	0	-17	0.2	-10%
CCOC(=O)C1CCN(C2CCN(C(=O)c3oc4c(F)cccc4c3C)CC2)CC1	·	7	·	0.7	·
COc1ccc(F)cc1S(=O)(=O)Nc1ccc(C)cc1	4	-4	14	-0.6	6%
CCN(CC)CCNC(=O)c1ccc(NC(=O)c2ccc(F)cc2F)cc1	-4	0	·	-0.1	-4%

Source: PubChem BioAssay (several laboratories)

Some of the compounds tested; rates above refer to the full screens.
